YopH PTP inh: YopH (Yersinia) phosphatase inhibition | AID 898 | 140,000 tested, 0.16% active | fluorescence Ex485/Em525 | inhibition, %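 (about 10 µM by stock and volumes)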;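 active = inhibition of 50% or more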;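 also: controls were vehicle for no effect and minimum signal wells for full effect; inactives centre near -20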
Mtb H37Rv: M. tuberculosis H37Rv growth inhibitors, H37Rv strain (AID 1626). 220,000 tested, 0.95% active. inhibition, % at 10 µM, or IC50 in µM where a hit was titrated. M. tuberculosis H37Rv growth inhibition; higher % means a stronger effect;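 active = confirmed in a dose series; inconclusive = inhibition above 80% but not taken into the dose series; inactive = below 80% or under 30% at every dose of the series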;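 also: bacteria incubated seven days before Alamar blue readout; 0% = bacteria only wells and 100% = bacteria with antibiotic wells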
RecA intein inh: blocks M. tuberculosis RecA intein splicing | 290,000 tested, 0.75% active | AID 2221 | inhibition, %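 (about 9 µM by stock and volumes)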 | P9WHJ3 | cell-free RecA intein splicing, fluorescence; in the data active = inhibition above about 30%; inconclusive = no clear call, values can overlap the other calls;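 also: 0% = vehicle wells and 100% = reference inhibitor control wells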
Target sequence (P9WHJ3 whole entry, looked up): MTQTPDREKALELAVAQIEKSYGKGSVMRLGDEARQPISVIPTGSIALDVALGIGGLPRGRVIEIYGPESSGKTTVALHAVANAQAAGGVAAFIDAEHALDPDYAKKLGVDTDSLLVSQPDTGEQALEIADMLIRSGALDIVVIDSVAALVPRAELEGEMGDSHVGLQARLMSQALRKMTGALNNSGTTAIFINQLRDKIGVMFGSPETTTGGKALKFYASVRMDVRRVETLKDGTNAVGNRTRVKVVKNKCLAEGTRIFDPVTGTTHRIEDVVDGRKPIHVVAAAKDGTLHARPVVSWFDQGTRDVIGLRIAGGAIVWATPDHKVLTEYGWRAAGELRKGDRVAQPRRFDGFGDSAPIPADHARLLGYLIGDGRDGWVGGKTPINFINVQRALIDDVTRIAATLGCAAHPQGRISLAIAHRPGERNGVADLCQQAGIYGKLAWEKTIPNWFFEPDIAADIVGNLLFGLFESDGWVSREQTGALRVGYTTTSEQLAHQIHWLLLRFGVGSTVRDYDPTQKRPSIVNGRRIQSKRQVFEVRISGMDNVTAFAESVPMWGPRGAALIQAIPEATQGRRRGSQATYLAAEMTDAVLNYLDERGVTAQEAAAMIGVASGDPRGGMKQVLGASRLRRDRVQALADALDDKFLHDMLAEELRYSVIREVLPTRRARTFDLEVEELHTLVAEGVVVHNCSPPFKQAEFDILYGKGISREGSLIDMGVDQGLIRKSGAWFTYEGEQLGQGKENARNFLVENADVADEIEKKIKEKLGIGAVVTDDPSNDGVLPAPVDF
Arbovirus inh: antivirals against arbovirus infection | arbovirus infection cell-based antiviral screen | inhibition, % at 10 µM | 200,000 tested, 0.37% active;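 active = inhibition from about 30%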;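 also: bluetongue infection of BSR cells; cell survival read as ATP light after 72 h; 0% = infected wells without compound and 100% = uninfected wells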
Mtb betalactam: beta-lactam sensitization of Mtb H37Rv; M. tuberculosis H37Rv growth with meropenem, percent inhibition; hits of this screen are not shown here; inhibition, % at 25 µM; 330,000 tested, 0.27% active; AID 434955;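 active = about 74% or more and at least 40 points above the plate without the antibiotic, then above 30% in a dose series; inconclusive = first-round hits that could not be retested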;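 also: growth measured after seven days incubation then overnight dye step; 0% = bacteria only wells and 100% = bacteria with antibiotic; twin plates without the antibiotic show which effects depend on it; some results filed as inactive read as strong as hits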
Arbovirus inh repeat: recorded beside Arbovirus inh, whose call it bears; inhibition, %; measured here: 10K subset replicate screen; many hits read low in the repeat;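 first of two repeat runs on a subset; 0% = infected and 100% = uninfected wells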
* = called active by the depositor; ? = inconclusive; . = no result given. These rows are one share of the data; rates above refer to the full screens.

SMILES | YopH PTP inh | Mtb H37Rv | RecA intein inh | Arbovirus inh | Mtb betalactam | others
O=C(COC(=O)c1cnc(Cl)c(Cl)c1)Nc1ccc(S(=O)(=O)N2CCCC2)cc1 | -12 | -2% | 4.8 | 3 | -2
O=C(O)Cn1nnc(-c2ccc(OCc3ccccc3)cc2)n1 | . | . | -1.2 | . | -1
COc1ccc(C)c(NC(=O)C2CC(=O)NC3=C2C(=O)CCC3)c1 (stereo unspecified) | . | 0% | 0.1 | -2 | -8
CN(CC#CCN1CCCC1)C(=O)c1cccc(Cl)c1 | . | -14% | -0.4 | . | -6
O=C(NCc1ccccc1)c1onc(CSc2ccccn2)c1C(=O)NCc1ccccc1 | . | 27% | -1.2 | . | -10
CC1(C)CC(=O)C2=C(C1)NCN(CCCN1CCOCC1)C2 | . | -1% | -9.2 | . | -2
Cc1nn(C)cc1/C=N/NC(=O)C(C)(C)Oc1ccc(Cl)cc1 | -15 | 0% | -1.0 | 1 | -7
O=C(NCCO)c1scc2c1OCCO2 | -30 | 4% | 1.4 | -2 | -9
CN(C)c1ccc(N2C(=NC(=O)COc3ccccc3)SC3CS(=O)(=O)CC32)cc1 (stereo unspecified) | . | . | -1.4 | . | -10
CCOc1ccccc1C1C(C#N)=C(N)SC(N)=C1C#N | -23 | . | -5.1 | 12 | 3
CCOC(=O)C1(Cc2cccc(OC)c2)CCN(Cc2cc(OC)ccc2OC)CC1 | . | 8% | 0.6 | 22 | -5
Cc1onc(-c2c(Cl)cccc2Cl)c1C(=O)NC1C(=O)N2C1SC(C)(C)C2C(=O)O (stereo unspecified) | . | -3% | 2.7 | 3 | 6
[O-][n+]1ccccc1SCc1ccccc1 | . | . | 0.2 | . | -8
COC(=O)CCCC1=CC2=C(c3ccccc3)C(=O)C(C)(OC(=O)C3CCCC3)C(=O)C2=CN1c1ccccc1 (stereo unspecified) | . | -6% | 19 | . | -4
CC(C)(C)n1nc2c(c1NC(=O)c1ccc(Br)cc1)CS(=O)C2 (stereo unspecified) | -12 | 2% | 0.3 | 6 | 3 | Arbovirus inh repeat=1
Cc1cc(C)c2c(-n3cccc3)c(NC(=O)OC(C)C)sc2n1 | -40 | 6% | -1.2 | 26 | 2
O=[N+]([O-])c1cccnc1NCc1cccs1 | . | 8% | 2.9 | 0 | 0
CCOc1ccc(NC(=O)CSc2nnc(-c3ccco3)n2N)cc1 | . | . | 0.4 | . | 63
CC(=O)C1(c2ccccc2)CCNCC1 | 1 | -7% | -3.0 | 0 | 2
CC1Cc2cc(S(=O)(=O)N3CCN(c4cccc(Cl)c4)CC3)ccc2N1C(=O)C1CC1 (stereo unspecified) | . | . | 5.3 | . | -6

The final 4 entries of the part before open the next one.
SMILES | YopH PTP inh | Mtb H37Rv | RecA intein inh | Arbovirus inh | Mtb betalactam | others
O=[N+]([O-])c1cccnc1NCc1cccs1 | . | 8% | 2.9 | 0 | 0
CCOc1ccc(NC(=O)CSc2nnc(-c3ccco3)n2N)cc1 | . | . | 0.4 | . | 63
CC(=O)C1(c2ccccc2)CCNCC1 | 1 | -7% | -3.0 | 0 | 2
CC1Cc2cc(S(=O)(=O)N3CCN(c4cccc(Cl)c4)CC3)ccc2N1C(=O)C1CC1 (stereo unspecified) | . | . | 5.3 | . | -6
COc1ccc(CCNC(=O)C2CCC(=O)N2S(=O)(=O)c2ccc(C)cc2)cc1 (stereo unspecified) | . | . | -1.4 | . | -3
COc1ccccc1C(=O)Nc1c(C(=O)N2CCN(C)CC2)oc2ccccc12 | . | . | 3.3 | . | -8
CCC(C)C(NS(=O)(=O)c1ccc(C)cc1)C(=O)O (stereo unspecified) | . | -8% | 0.2 | 6 | 0
CCOC(=O)c1ccc(N2C(=O)C3CC=CCC3C2=O)cc1 (stereo unspecified) | -4 | -5% | -3.5 | 6 | -6
CCc1cccc(NC(=O)Cn2c(-c3ccccc3)cc(C(C)=O)c2C)c1 | -12 | 5% | -0.6 | -4 | -2
CC1CCCC(C)N1C(=S)NCc1ccco1 (stereo unspecified) | . | 0% | -0.7 | . | 74
CC(=O)c1cccc(CN2CCC(CO)(CCCc3ccccc3)CC2)c1 | . | 4% | -0.2 | -8 | -3
COc1cc(/C=C2/C(=O)NN(c3ccc(Cl)cc3)C2=O)cc(OC)c1O | . | . | 9.5 | . | 92
COC(=O)c1sccc1NC(=O)c1cc(-c2cc(C)ccc2C)nc2ccccc12 | -38 | -7% | . | -5 | 2
CN(C)CC#CCC(O)(c1ccccc1)C1CCCC1 (stereo unspecified) | -1 | -15% | -4.5 | 3 | -5
COc1cccc(C2CC(=O)C3=C(C2)Nc2ccccc2N(C(=O)CCC(=O)O)C3c2ccc(F)cc2)c1 (stereo unspecified) | . | -7% | -0.7 | . | -2
Cc1ccc(Cn2ncn(-c3ccccc3)c2=O)cc1 | . | 6% | -2.9 | 1 | -2
Cc1ccc(NS(=O)(=O)c2cccc(C(=O)NCC(c3cccs3)N(C)C)c2)cc1 (stereo unspecified) | . | 10% | -3.8 | 2 | 1
CCCc1cc(C(=O)N2CCCC(Cc3ccccc3C)(C(=O)OCC)C2)no1 (stereo unspecified) | . | . | 4.5 | . | 7
Cc1ccc(Nc2ccc(C(=O)NCCc3ccccc3)cn2)cc1 | -17 | 0% | 0.7 | -3 | -3
O=C(NNS(=O)(=O)c1ccccc1)c1ccc(S(=O)(=O)N2CCCCC2)cc1 | -40 | -3% | -1.7 | 1 | -5
CCC(=O)N/C(N)=N/c1nc2ccccc2o1 | . | 7% | -3.8 | . | -2
Cn1c(CCN2CCCCCC2)nc2cc(NC(=O)Nc3ccccc3)ccc21 | -34 | 1% | 3.5 | 1 | 83
O=C(/C=C/c1ccccc1)NC(=S)Nc1ncccn1 | . | 1% | -1.7 | . | -3
COC(=O)C1Cc2ccccc2CN1S(=O)(=O)c1ccc(F)cc1 (stereo unspecified) | . | . | 3.0 | . | -4
Cn1nc(NC(=O)C(C)(C)C)c2c(F)cccc21 | . | -6% | -0.6 | . | -8
Cn1c(-c2sc(=S)n(-c3ccccc3)c2N)nc2ccccc21 | -16 | -13% | -6.8 | -8 | 2
CC(C)(C)c1ccc(CN(Cc2ccco2)Cc2nnnn2C2CCCC2)cc1 | -30 | 1% | 16 | -14 | 2
CC(C)C(=O)N1CCN(CCN=Cc2c(O)n(C)c(=O)n(C)c2=O)CC1 | 12 | -5% | 1.3 | 6 | 1
NC1=NC(=O)S/C1=C\c1ccc(O)cc1 | -36 | 7% | -0.4 | 4 | -11
Cc1oc(-c2ccc3c(c2)OCCO3)cc1C(=O)NC(Cc1ccccc1)C(=O)O (stereo unspecified) | . | 2% | 0.5 | -4 | 13
Cc1ccc(NC(=O)ON=C2CCCC2)cc1 | -9 | 47% | -2.0 | -19 | 2
CCn1c(CC(=O)Nc2ccc(C)cc2)nnc1SCC(=O)NCCc1ccccc1 | -11 | -8% | 0.4 | 15 | -7
CC(Cl)C(=O)Nc1cc(C(F)(F)F)ccc1N1CCOCC1 (stereo unspecified) | . | 7% | 5.3 | 7 | -2
COc1ccc(CC(C(=O)Nc2ccc(OC)cc2)c2nn[nH]n2)cc1 (stereo unspecified) | . | . | 2.1 | . | -24
CCN(CC)C(=O)c1cc(Cl)ccn1 | . | 2% | . | -2 | -1
Cc1c(C(=O)Nc2ccc(Cl)cc2)c2ccccn2c1C(=O)c1ccc(F)cc1 | -15 | -1% | -10 | 0 | 0
COc1cc([N+](=O)[O-])ccc1NC(=O)Nc1cccnc1 | . | . | 2.8 | . | -6
O=c1[nH]c(SCc2cccc(Cl)c2)nc2[nH]ncc12 | . | 8% | 4.3 | -31 | 27
CCN(CC)C(=O)Cn1c(=O)n(CC(=O)N2CCCCC2)c(=O)c2sccc21 | . | . | 2.9 | . | 4
COc1cc(/C=N/NC(=O)Cn2nc([N+](=O)[O-])cc2C)cc(Br)c1OCc1ccccc1 | 2 | -5% | 5.4 | -20 | -2
Cc1ccc(-n2nc3ccc(NC(=S)NC(=O)/C=C/c4ccco4)cc3n2)cc1 | -23 | 12% | 6.0 | -5 | 2
CC(C)OCCCNc1ncc2c(n1)CC(c1ccccc1)CC2=O (stereo unspecified) | . | -4% | -1.0 | 0 | -3
COc1ccc(CC(=O)NCc2nnc(SCc3ccc(C)cc3)n2C)cc1 | -28 | 0% | -0.1 | 4 | -1
Cc1cccc(C)c1-n1c(C)nn(CC#N)c1=O | . | -6% | -4.7 | 4 | -8
Cc1cccc(Oc2ccc3c(c2)cc(C(=O)O)n3C)c1 | . | . | 0.6 | . | 0
COc1cc(OC)c(OC)cc1CNCCc1ccc(F)cc1 | . | . | -1.6 | . | 4
Cc1onc(-c2ccccc2)c1C(=O)NC(=S)Nc1sc2c(c1C#N)CCC(C)C2 (stereo unspecified) | 3 | -3% | -6.8 | -1 | 4
O=c1[nH]c2ccccc2n1CCCN1CCCCC1 | . | -2% | 0.1 | -2 | -2
CCCN(CCC)CC(O)Cn1cc(/C=C/C(=O)c2ccccc2)c2ccccc21 (stereo unspecified) | . | 1.5µM* | -1.7 | -26 | .
Cc1c(N2C(=O)CS/C2=N\N=C\c2ccc(Br)cc2)c(=O)n(-c2ccccc2)n1C | -30 | 4% | 1.7 | 1 | 0
CCn1ccnc1CN(C)C(=O)c1ccc2nc(Cc3ccc(OC)cc3)oc2c1 | . | . | 1.9 | . | -1
CC(OC(=O)CCCN=C1NS(=O)(=O)c2ccccc21)C(=O)Nc1ccc(F)c(F)c1F (stereo unspecified) | . | . | -1.9 | . | -16
Cc1ccc(S(=O)(=O)Oc2ccccc2/C=N/NC(N)=S)cc1 | -18 | 5% | -1.0 | -24 | -10
Cn1c(=O)n(C)c2cc([N+](=O)[O-])c(N3CCN(S(=O)(=O)c4ccc(C(C)(C)C)cc4)CC3)cc21 | 13 | 6% | 7.4 | 7 | -1
Later entries.
SMILES | YopH PTP inh | Mtb H37Rv | RecA intein inh | Arbovirus inh | Mtb betalactam | others
NC(=O)C(c1ccc(Cl)cc1)c1ccc(Sc2ccc(Cl)cc2)nn1 (stereo unspecified) | 9 | 0% | 9.1 | -23 | -11
COC(=O)C(=C/C=C/N1CCOCC1)C(=O)OC | . | -13% | 4.0 | . | -7
CCOc1ccc(NC(=O)CSc2nc(C)c3c(c2C#N)CCCC3)cc1 | -7 | -2% | -0.2 | -10 | -21
Nc1ncc([N+](=O)[O-])c(N2CCCCCC2)n1 | . | . | 0.0 | . | 5
O=C(Nc1ccccc1N1CCCC1)c1cccc(F)c1 | . | . | -1.7 | . | 2
Cc1nc2scc(C)n2c(=O)c1S(=O)(=O)NCc1ccc(F)cc1 | . | . | -2.6 | . | 5
COC(=O)c1ccccc1S(=O)(=O)NCc1nc2nc(C)cc(C)n2n1 | . | . | -1.9 | . | -1
COc1ccccc1C1(O)CCN(CC(=O)Nc2nc(-c3ccccc3)cs2)CC1 | . | -2% | 5.8 | -3 | 80
Nc1cccc(-c2cnc3ccccc3n2)c1 | . | . | 4.7 | . | 27
COc1ccc2cc3c(N)nn(C(=O)c4ccccc4[N+](=O)[O-])c3nc2c1 | -27 | 15% | -3.4 | -4 | 5
CCCCCn1nnc2c(=O)oc3ccccc3c21 | . | ? | -2.1 | 0 | 99
O=C(Nc1ccc2c(c1)OCCO2)c1ccc(Cl)c([N+](=O)[O-])c1 | -12 | 1% | 1.7 | 5 | 2
COc1ccc(/C=C/C(=O)N(C(C)C)C(C)C)cc1Br | -14 | 18% | 2.5 | -2 | .
Cc1sc(NC(=O)CSc2ncn(-c3ccccc3)n2)nc1-c1ccccc1 | -25 | 0% | 5.8 | -10 | 0
COc1ccc(C(=O)N2c3ccccc3CC2C)cc1OC (stereo unspecified) | -17 | -2% | 2.8 | -3 | -16
C#CC[N+](C)(C)CCCCCCCC | 6 | 4% | -0.3 | 1 | 3
Nc1nonc1C(=O)NCCNS(=O)(=O)c1ccc(F)cc1 | -11 | 0% | 0.5 | 1 | -5
COc1ccc(NC(=O)CSc2nc3c([nH]c4ccccc43)c(=O)n2C)cc1 | . | 8% | -1.2 | -5 | 5
Cc1cc(C(=O)Nc2ccccc2)c(C)o1 | 3 | . | -2.0 | -6 | -3

Already shown: an excerpt of the list.
SMILES | YopH PTP inh | Mtb H37Rv | RecA intein inh | Arbovirus inh | Mtb betalactam | others
Nc1nonc1C(=O)NCCNS(=O)(=O)c1ccc(F)cc1 | -11 | 0% | 0.5 | 1 | -5
COc1ccc(NC(=O)CSc2nc3c([nH]c4ccccc43)c(=O)n2C)cc1 | . | 8% | -1.2 | -5 | 5
Cc1cc(C(=O)Nc2ccccc2)c(C)o1 | 3 | . | -2.0 | -6 | -3

Screening results from PubChem BioAssay.
